TDP1 inh – inhibitors of human tyrosyl-DNA phosphodiesterase TDP1 | Q9NUW8 | 350,000 compounds, 0.28% hits | recombinant TDP1, AlphaScreen DNA substrate cleavage | AID 485290 | Potency, µM (titrated, usually from 130 µM), for inactives: at the highest dose activity change, negative = inhibition, most hits filed as inhibitors; also: nearly all actives have a fitted effect of over 40% in size
Target sequence (Q9NUW8 whole entry, looked up): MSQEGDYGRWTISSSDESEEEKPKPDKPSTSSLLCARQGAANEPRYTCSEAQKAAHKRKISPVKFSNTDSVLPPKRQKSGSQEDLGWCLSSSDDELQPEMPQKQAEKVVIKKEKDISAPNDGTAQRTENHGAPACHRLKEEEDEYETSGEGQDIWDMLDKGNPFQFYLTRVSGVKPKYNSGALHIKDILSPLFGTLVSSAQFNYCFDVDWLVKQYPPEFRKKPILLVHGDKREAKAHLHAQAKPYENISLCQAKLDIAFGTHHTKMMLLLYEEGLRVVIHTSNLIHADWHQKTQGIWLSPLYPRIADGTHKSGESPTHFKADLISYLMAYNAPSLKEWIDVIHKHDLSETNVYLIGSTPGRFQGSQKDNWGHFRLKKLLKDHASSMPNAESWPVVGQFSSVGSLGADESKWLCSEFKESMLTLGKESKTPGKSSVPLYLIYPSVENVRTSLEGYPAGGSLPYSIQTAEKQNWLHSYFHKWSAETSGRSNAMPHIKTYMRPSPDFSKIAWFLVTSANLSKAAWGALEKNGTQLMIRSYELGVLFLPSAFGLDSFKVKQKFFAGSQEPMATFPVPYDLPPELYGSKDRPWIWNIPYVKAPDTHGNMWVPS
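Recombinant human Tdp1 (E. coli-expressed, 1 nM final) preincubated with compounds 15 min at room temperature, then 5'-biotin/3'-phosphotyrosine-FITC DNA substrate (15 nM final) added for 5 min. AlphaScreen beads (10 ug/ml final) added 10 min; cleavage lowers signal.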
N370S GC – inhibitors or activators of N370S glucocerebrosidase for Gaucher disease; Potency, µM (top dose mostly 59.4 µM), without a hit: top-dose activity change, negative = inhibition, usual class: inhibitors; AID 2101; 330,000 compounds, 0.092% hits; N370S GC spleen homogenate, 4MU-glucoside fluorescence;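 also: 0% = full enzyme activity and -100% = no enzyme basal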
* marks the source's active call; other numbers are inactive results; ? = inconclusive; · = no result given; & = joins results of further samples; [ ] = remark or other dose. Calls follow the shape of the dose curve; as a rule, active = well fitted curve in the direction sought with a large enough effect; inconclusive = small, poorly fitted or top-dose-only effect, or another doubt; inactive = no such curve, though single readings can be large; an effect the other way counts as inactive or inconclusive. Unless noted, % is scaled to controls: 0 for no effect and ±100 for the full control effect; potency is read from the fitted curve at half-maximal effect.

TDP1 inh	N370S GC	Structure
1%	-19%[2.35 µM]	O=C(CCc1nc(-c2ccccc2)no1)NCC1CCCO1 (centres undefined)
0%	2%	COCCCNC(=S)N1CCC(NC(=O)Nc2ccc(C)cc2)CC1
3%	·	O=S(=O)(c1ccc(NCCOCCO)nc1)N1CCCCC1
0%	-1%	CCOC(=O)[C@H]1[C@H]2COc3ccc(Cl)cc3[C@@H]2N2C(=O)c3cc(F)ccc3NC(=O)[C@@]12C
2%	5%	Cc1ccc(OCC(=O)OC2CCS(=O)(=O)C2)cc1 (centres undefined)
5%	-8%	O=C(CSc1ccc(-c2cccnc2)nn1)c1ccc([N+](=O)[O-])cc1
2%	2%	O=C(O)c1cn(-c2ccccc2)nc1-c1cccnc1
3%	·	COc1cccc(CCC(=O)Nc2cc3c(cc2C(=O)O)OCCCO3)c1OC
-8%	0%	CCc1ccc(N2CC(C(=O)N/N=C/c3cccc([N+](=O)[O-])c3)CC2=O)cc1 (centres undefined)
0%	-1%	O=C(Nc1nc(-c2cc(F)ccc2F)cs1)C1=COCCO1
5%	-4%	Cc1sc2ncnc(NCc3cccnc3)c2c1C
-2%	3%	Cc1cc(NN)nc(NS(=O)(=O)c2ccc(Cl)cc2)n1

More entries
TDP1 inh	N370S GC	Structure
6%	2%	Cc1ccc(NC(=O)C2CCCN2C(=O)OCc2ccccc2)c(O)c1 (centres undefined)
5%	-3%	c1nc(NC2CCCCCC2)c2[nH]cnc2n1
1%	3%	Cc1ccc(-c2ccc(SCC(=O)NCC3CCCO3)nn2)cc1 (centres undefined)
2%	5%	CSc1nc(NCC(C)C)nc(N2CCOCC2)n1
·	-1%	Cc1cc(/C=C(/C#N)c2nc3ccccc3[nH]2)c(C)n1-c1cc(C(=O)O)cc(C(=O)O)c1
-8%	-2%	Cc1ccsc1/C=N/NC(=O)c1ccc2nc[nH]c2c1
3%	5%	COc1ccc(Cl)cc1NC(=O)CN1CCc2ccccc21
3%	-9%	O=[N+]([O-])c1ccc(S(=O)(=O)NCCS(=O)(=O)N2CCN(c3ccccc3)CC2)cc1
5%	-1%	Cn1c(=O)n(C)c2cc(CN3C(=O)OC(C)(C)C3(C)O)ccc21 (centres undefined)
-12%&-10%	-1%	COC(=O)c1ccc(NC(=O)CCS(=O)(=O)c2ccc(Br)cc2)cc1
0%	-19%	N#Cc1ccc(NC(=O)Cn2c3[n+](c4ccc(C(F)(F)F)cc42)CCCCC3)cc1
7%	-1%	Cc1ccc(-c2nc3ccccc3c(=O)n2CCCn2ccnc2)cc1

7 of the entries above in order of the TDP1 inh value, smallest number first:
| Compound | TDP1 inh | N370S GC |
| --- | --- | --- |
| Cc1ccsc1/C=N/NC(=O)c1ccc2nc[nH]c2c1 | -8% | -2% |
| N#Cc1ccc(NC(=O)Cn2c3[n+](c4ccc(C(F)(F)F)cc42)CCCCC3)cc1 | 0% | -19% |
| CSc1nc(NCC(C)C)nc(N2CCOCC2)n1 | 2% | 5% |
| O=[N+]([O-])c1ccc(S(=O)(=O)NCCS(=O)(=O)N2CCN(c3ccccc3)CC2)cc1 | 3% | -9% |
| Cn1c(=O)n(C)c2cc(CN3C(=O)OC(C)(C)C3(C)O)ccc21 (centres undefined) | 5% | -1% |
| Cc1ccc(NC(=O)C2CCCN2C(=O)OCc2ccccc2)c(O)c1 (centres undefined) | 6% | 2% |
| Cc1ccc(-c2nc3ccccc3c(=O)n2CCCn2ccnc2)cc1 | 7% | -1% |

The results go on.
TDP1 inh	N370S GC	Structure
0%	-5%	Cc1ccc(NS(=O)(=O)c2ccc(OCC(=O)NCC3CCCO3)cc2)cc1 (centres undefined)
·	?	COc1ccc2c(c1)c(=O)oc1c(C)c(OC(C)C(=O)NCC3CCC(C(=O)O)CC3)ccc12 (centres undefined)
4%	-3%	CCOC(=O)c1nnn(-c2nonc2N)c1CSc1ccccn1
4%	-10%	O=C(Nc1ccccc1)OC(CN1CCCCC1)C(F)(F)F (centres undefined)
0%	6%	CC(C)(C)NC(=O)c1ccccc1NC(=O)C1CCCO1 (centres undefined)
-4%	19%	O=[N+]([O-])c1cc(S(=O)(=O)N2CCOCC2)ccc1N1CCCC1
2%	-2%	CCCn1nnnc1NCc1ccc(N(CC)CC)cc1
7%	8%	Cc1cccc(Cn2c(=O)n(-c3ccc(CC(=O)NCc4ccco4)cc3)c(=O)c3sccc32)c1
4%	-17%	CCOc1ccc2nc(SCC(=O)NC3CCS(=O)(=O)C3)[nH]c2c1 (centres undefined)
6%	1%	CNC(=S)N1CCC(n2cnc3ccccc32)CC1
2%	-7%	Cc1ccc(CCNC(=O)C2CCN(S(=O)(=O)N3CCCC3)CC2)cc1
4%	-1%	COc1ccc(-c2nc(C#N)c(N3CCN(C(=O)c4ccco4)CC3)o2)cc1OC

Five structures already listed, ordered by molar mass, smallest number first.
TDP1 inh	N370S GC	Structure
0%	6%	CC(C)(C)NC(=O)c1ccccc1NC(=O)C1CCCO1 (centres undefined)
-4%	19%	O=[N+]([O-])c1cc(S(=O)(=O)N2CCOCC2)ccc1N1CCCC1
4%	-17%	CCOc1ccc2nc(SCC(=O)NC3CCS(=O)(=O)C3)[nH]c2c1 (centres undefined)
0%	-5%	Cc1ccc(NS(=O)(=O)c2ccc(OCC(=O)NCC3CCCO3)cc2)cc1 (centres undefined)
·	?	COc1ccc2c(c1)c(=O)oc1c(C)c(OC(C)C(=O)NCC3CCC(C(=O)O)CC3)ccc12 (centres undefined)

Further compounds follow.
TDP1 inh	N370S GC	Structure
0%	-19%	Nc1nonc1C(=O)NCCNc1ccc([N+](=O)[O-])cn1
·	-2%	CC(=O)c1ccc(NC(=O)c2ccc3nc(C)sc3c2)cc1
2%	-22%	CN1CCC(=NNC(=O)CN(c2ccccc2)S(=O)(=O)c2ccccc2)CC1
·	22%	COC(=O)c1ccccc1NC(=O)c1ccc2c(c1)CC(C)O2 (centres undefined)
2%	-13%	CCc1c(O)nc(SCC(=O)Nc2ccccc2C)[nH]c1=O
1%	-7%	CCOC(=O)n1c(=O)n(C)c2ccc(Br)cc21
5%	-1%	O=C(NCCO)C1(c2ccccc2)CCCC1
5%	-6%	Cc1cc(C)c(NC(=O)COc2nc3ccccc3nc2C)c(C)c1
5%	·	O=C(NCCc1ccccc1)C1COc2ccccc2C1 (centres undefined)
3%	30%	Cc1ccc(CNC(=O)COC(=O)c2ccc(Br)cc2)cc1
·	4%	O=C(O)CSc1nc2ccccc2nc1Cc1ccccc1F
·	1%	Cn1c(C(O)c2ccc(Br)cc2)nc(Cl)c1Cl (centres undefined)

The list goes on.
TDP1 inh	N370S GC	Structure
-2%	9%	COc1ccc(S(=O)(=O)N2c3ccccc3OCC2c2ccccc2)cc1 (centres undefined)
5%	-8%	Cc1ccc(Cn2c(=N)c(C(=O)NCC3CCCO3)cc3c(=O)n4cccc(C)c4nc32)cc1 (centres undefined)
5%	-1%	CCCn1nc2cc(C(=O)N(CC)c3ccc(OC)cc3)ccc2c1OCC
·	14%	c1ccc(OCCSc2nnnn2-c2ccccc2)cc1
2%	1%	CCOc1ccc(N(CC(=O)NC2CCCC2)C(=O)CCC(=O)Nc2ccccn2)cc1
7%	4%	Cc1ccn2cc(CCNS(=O)(=O)c3ccc4c(c3)CCCC4)nc2c1
-3%[56.1 µM]	-1%	CC(C)(C)NC(=O)CSC(=Nc1ccccc1F)NC#N
0%	·	O=C1CS(=O)(=O)N(Cc2cccc(F)c2)c2ccc(Br)cc21
0%	0%	NS(=O)(=O)c1ccc(CCNC(=O)CN2C(=O)COc3ccc(S(=O)(=O)N4CCCC4)cc32)cc1
6%	-3%	Cc1ccccc1N=Nc1c(C)[nH]n(C(N)=S)c1=O
5%	0%	CC(CCN1CCC(n2nccc2NC(=O)c2ccccc2Cl)CC1)c1ccccc1 (centres undefined)
3%	-1%	CC(O)C(NC=C1C(=O)OC(C)(C)OC1=O)C(=O)O (centres undefined)

(cont.)
TDP1 inh	N370S GC	Structure
0%	0%	COc1ccc(Nc2nc(C(=O)NCCCN3CCOCC3)cs2)cc1
6%	10%	COc1ccc(CCN2C(=O)N(c3ccc(OC)cc3)C(=O)C2CC(=O)Nc2ccc(OC)cc2)cc1 (centres undefined)
7%	-4%	O=C(CN1CCN(S(=O)(=O)c2ccc(Br)cc2)CC1)Nc1ccccc1F
0%	-6%	O=C(NCc1ccc(Cl)cc1)c1ccc(-n2cccn2)nc1
3%	-2%	CCOC(=O)/C(=C/c1cn(C)c2ccccc12)NC(=O)c1ccccc1
1%	0%	Cc1cccn2cc(CCNS(=O)(=O)c3cccc([N+](=O)[O-])c3)nc12
·	5%	CCOC(=O)C1(Cc2ccccc2)CCN(Cc2ccc3cc(NC(C)=O)ccc3n2)CC1
-2%	1%	CCOC(=O)c1c(C)n(C)c2c(C)cc(O)c(OC(C)=O)c12
·	3%	O=C1CCCN1c1ccc(S(=O)(=O)N2CCCCC2)cc1
3%	-3%	COCCC(=O)N1CCC(Oc2ccc(C(=O)NCc3nccn3C)cc2)CC1
3%	-6%	O=C(/C=C/c1cccc(C(F)(F)F)c1)N1CCN(c2ccccn2)CC1
-2%	-5%	CC1CCCCC1NC(=O)CCCCCn1c(=S)[nH]c2ccccc2c1=O (centres undefined)

Later entries.
TDP1 inh	N370S GC	Structure
-5%	3%	Cc1cc2ncc(Cl)nc2cc1C
0%	1%	CC(=O)CCc1c(C)nc2ccc(C(=O)O)cc2c1Cl
5%	2%	O=C(CCS(=O)(=O)c1ccccc1)Nc1ccc(S(=O)(=O)Nc2ncccn2)cc1
-5%	-1%	COc1ccccc1NS(=O)(=O)c1cccc(C(=O)N2CC(C)OC(C)C2)c1 (centres undefined)
3%	-21%	CC(=O)Nc1ccc(N2CCN(C(C)=O)CC2)cc1
·	-6%	O=C(COC(=O)/C=C/c1ccc(OC(F)F)cc1)Nc1cccc(S(=O)(=O)N2CCCC2)c1
1%	4%	CCn1c(C)[n+](Cc2ccccc2)c2ccc(Cl)cc21
8%	10%	CC(=O)c1cccc(NC2c3ccccc3C(=O)N2Cc2ccc3c(c2)OCO3)c1 (centres undefined)
·	-19%	CN(C(=O)c1ccccc1C(=O)OCC(=O)c1ccc(Br)cc1)c1ccccc1
·	-2%	CCCCNC(=O)[C@@H]1CSC2c3ccc(OC)c(OC)c3C(=O)N21 (some centres undefined)
4%	8%	CCOC(=O)Cc1nnc(Nc2ccc(C)cc2)c2ccccc12
-5%	25%	COc1cc2ccccc2cc1C(=O)N1CCc2ccccc21

Continued:
TDP1 inh	N370S GC	Structure
3%	-4%	O=C(CSC1=NS(=O)(=O)c2ccccc2N1)N1CCCCC1
·	-6%	COc1ccc(N(C)C(=O)Cc2c(C(=O)O)n(C)c3ccccc23)c(OC)c1
8%&1%	-4%	CCN(CC)c1ccc(NC(=O)Cn2ncc3c(C)n(Cc4ccccc4F)c(C)c3c2=O)c(C)c1
-5%	1%	O=C(c1cccs1)N1CCN=C1SCc1ccc(Cl)cc1
-3%	2%	C=CCn1c(SCC(=O)Nc2ccc(OC)cc2)nc2c([nH]c3ccccc32)c1=O
·	-8%	CS(=O)(=O)c1ccc(Cl)c(NC(=O)CSc2n[nH]c(N)n2)c1
2%	4%	CCN(CC)S(=O)(=O)c1ccc2c(c1)nc(CCC(=O)Nc1cccc(C(F)(F)F)c1)n2CC
-6%&-2%	-2%	Cc1ccc(NC(=O)C2CCCN(S(=O)(=O)c3c(C)noc3C)C2)cc1 (centres undefined)
·	-5%	COc1ccc(-c2noc(N3CCC(C(=O)NCc4ccc(Cl)cc4)CC3)n2)cc1
5%	-6%	COc1ccc(CNC(=O)c2cc(=O)c3cc(C)ccc3o2)cc1
-11%	-8%	[O-]/[N+](=C\c1cccc(Br)c1)c1ccccc1
-8%[56.1 µM]	·	CCC(C(=O)N1CCN(S(=O)(=O)c2sc(C(=O)O)c(C)c2C(=O)O)CC1)c1ccccc1 (centres undefined)

The listing continues:
TDP1 inh	N370S GC	Structure
2%	7%	CC(=O)N/C(=C/c1ccccc1)C(=O)NCCO
8%	2%	CC(C)C(=O)OC/C(O)=C(\C#N)c1nc2ccccc2[nH]1
5%	-1%	O=S(=O)(Cc1ccccc1)c1cnc2ccccc2n1
0%	-2%	CCC(=O)N(CCN1CCOCC1)Cc1cc2cc3c(cc2nc1Cl)OCO3
5%	27%	COC(=O)c1cccc(-n2c(C)cc(C=O)c2C)c1C
3%	-5%	COc1ccc(S(=O)(=O)N2CCOCC2)cc1NC(=O)c1c(-c2ccccc2)noc1C
2%	-1%	COc1cccc(C2Nc3ccccc3NC3=C2C(=O)CC(C)(C)C3)c1 (centres undefined)
0%	-5%	C[C@H]1OC(OC2C(O)[C@@H](O)C(OC3C(O)[C@@H](O)C(O)O[C@@H]3CO)O[C@@H]2CO)[C@H](O)C(O)C1N[C@H]1C=C(CO)[C@@H](O)[C@H](O)C1O (some centres undefined)
4%	2%	COc1ccc(OC)c(NC(=O)CSc2ccc(-c3ccco3)nn2)c1
0%	5%	CCOc1ccc(-n2c(=O)c3c4c(sc3n(CC(=O)NCC3CCCO3)c2=O)CCCC4)cc1 (centres undefined)
6%	4%	COc1ccc2nc(/N=C/c3c(C)[nH]n(-c4ccc(C)cc4)c3=O)sc2c1
·	9%	Cc1noc(C)c1COc1ccc(C(=O)OCC(=O)N2c3ccccc3NC(=O)C2(C)C)cc1

Further results follow:
TDP1 inh	N370S GC	Structure
7%	-13%	COc1ccc(Cl)cc1C(=O)Nc1ccc(NC(=O)c2ccco2)cc1
4%	5%	CN(Cc1nc2ccc(Cl)cc2[nH]1)Cc1nc(-c2cnccn2)no1
-4%	8%	Cc1cc(/C=N/n2cnnc2)c(C)n1-c1cccc(C(=O)O)c1
4%	16%	COc1ccc(CCNC(=O)CN(c2ccccc2OC)S(=O)(=O)c2ccc(C)cc2)cc1

Only part of the results is shown, and most or all hits are left out here.
